RE007 growth inh: qHTS Assay for Inhibitors of the HIV-1 protein Vpr | 360,000 tested, 0.21% active | AID 651644, 2012 | Potency, µM (highest dose often 92.2 µM), without a hit: at the top dose activity change, negative = less growth | S. pombe RE007 Vpr strain, BacTiter-Glo ATP luminescence, 24 h; control for the full effect not named in the record; active = well fitted falling curve with a large enough effect; inconclusive = small, poorly fitted or top-dose-only effect; inactive = no such curve, though single readings can be large or run the other way;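 also: % is scaled to controls: 0 for no effect and ±100 for the full control effect; nearly all actives have a fitted effect of over 50% in size; the assay follows cell death caused by Vpr and the record does not say whether a fall means rescue or toxicity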
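Fission yeast RE007 carrying one integrated HIV-1 vpr copy, seeded at OD 0.01 in PMG+AL medium with 23 nL pinned compound. Grown 24 h at 30 degrees; viability read by BacTiter-Glo luminescence after 5 min.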
MARV entry inh: qHTS for inhibitors of binding or entry into cells for Marburg Virus; Marburg virus pseudotyped entry inhibition, cell reporter; control for the full effect not named in the record; about a third of the inactives were read at about 46 µM; Potency, µM (series often up to 37.8 µM), inactives show top-dose activity change, negative = inhibition, most hits filed as inhibitors; 300,000 tested, 1.8% active; AID 540276, 2011; active = well fitted inhibition curve with a large enough effect; inconclusive = small, poorly fitted or top-dose-only effect, or effect the other way; inactive = flat fitted curve, though single readings scatter; tested in HEK293 cells; about a fifth of its hits are not listed in these tables; also: % is scaled to controls: 0 for no effect and ±100 for the full control effect; luciferase read-out
NS1 inh: qHTS Assay for Inhibitors of Influenza NS1 Protein Function | S. cerevisiae slowed by influenza A NS1, growth recovery by OD600 | Potency, µM (doses to about 46.1 µM), for inactives: at the highest dose activity, positive = more growth | 270,000 tested, 0.4% active; also: actives are rising curves; nearly all actives have a fitted effect of over 50% in size
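Read-out: OD600 growth recovery of NS1-expressing budding yeast. Cells grown overnight at 30C in -URA glucose medium, washed, resuspended and diluted 1:100 in 2% galactose assay medium, pH 6.0. Same strain lacking NS1 served as positive control.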
Cruzain inh Det: qHTS Assay for Promiscuous and Specific Inhibitors of Cruzain (with detergent). Cruzipain (Trypanosoma cruzi), P25779. Potency, µM, for inactives: max response, negative = inhibition, actives largely listed as inhibitors. purified cruzain, Z-FR-AMC fluorescence, 0.01% Triton. 200,000 tested, 0.43% active; active = well fitted curve in the direction sought with a large enough effect; inconclusive = small, poorly fitted or top-dose-only effect, or another doubt; inactive = no such curve, though single readings can be large; an effect the other way counts as inactive or inconclusive;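 also: plate controls were neutral wells for no effect and buffer without enzyme for full effect; nearly all actives have a fitted effect of over 40% in size; top concentration of the series not given in the record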
Target sequence (P25779 123-467 limits assumed): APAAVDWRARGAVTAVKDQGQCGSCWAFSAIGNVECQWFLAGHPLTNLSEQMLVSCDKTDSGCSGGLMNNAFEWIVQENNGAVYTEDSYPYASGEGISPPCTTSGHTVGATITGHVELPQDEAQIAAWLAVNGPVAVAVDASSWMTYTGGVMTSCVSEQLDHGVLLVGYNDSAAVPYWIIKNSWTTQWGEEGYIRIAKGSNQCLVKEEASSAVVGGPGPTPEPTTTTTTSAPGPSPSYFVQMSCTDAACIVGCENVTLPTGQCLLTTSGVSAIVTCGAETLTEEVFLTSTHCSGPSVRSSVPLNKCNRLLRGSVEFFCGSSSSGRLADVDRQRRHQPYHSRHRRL
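Detergent-containing arm of a paired screen for aggregation-based inhibition: 0.01% Triton X-100 present. Cruzain at 1.5 nM cleaved 2 uM Z-FR-AMC at pH 5.5 with 5 mM DTT; AMC fluorescence gain over 60 s measured activity.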
LASV entry inh: qHTS for Inhibitors of binding or entry into cells for Lassa Virus; 300,000 tested, 1.2% active; Lassa virus pseudotype entry inhibition, cell reporter; control for the full effect not named in the record; Potency, µM (top dose mostly 37.9 µM), for the others: at the highest dose activity change, negative = inhibition, hits mostly inhibitors; active means well fitted inhibition curve with a large enough effect; inconclusive means small, poorly fitted or top-dose-only effect, or effect the other way; inactive means flat fitted curve, though single readings scatter; tested in HEK293 cells; also: % is scaled to controls: 0 for no effect and ±100 for the full control effect; nearly all actives have a fitted effect of over 50% in size; luciferase read-out
SARS PLP yeast: qHTS of Yeast-based Assay for SARS-CoV PLP. 330,000 tested, 0.19% active. Potency, µM (titrated, usually from 32.9 µM), for inactives: at the top dose activity, positive = growth rescue. S. cerevisiae expressing SARS-CoV PLpro, growth rescue; control for the full effect not named in the record; also: 0% is about no effect; nearly all actives have a fitted effect of over 55% in size; growth read by luminescence after 48 h
2A StopGo: High Throughput Screening for Foot and Mouth Disease Virus Antivirals; human cells with a luciferase reporter of 2A StopGo recoding; control for the full effect not named in the record; Potency, µM (titrated, usually from 57.9 µM), inactives show at the top dose signal change, negative = less light; 410,000 tested, 1.2% active; AID 1159524, 2015; active = well fitted falling curve with a large enough effect; inconclusive = small, poorly fitted or top-dose-only effect; inactive = no such curve, though single readings can be large or run the other way; tested in HEK293T cells; also: % is scaled to controls: 0 for no effect and ±100 for the full control effect; nearly all actives have a fitted effect of over 45% in size; luciferase light after 4 h
Cruzain inh noDet: qHTS Assay for Promiscuous and Specific Inhibitors of Cruzain (without detergent); purified cruzain, Z-FR-AMC fluorescence, no detergent; Potency, µM, for the others: max response, negative = inhibition, hits mostly inhibitors; 200,000 tested, 2.3% active; Cruzipain (Trypanosoma cruzi), P25779; active = well fitted curve in the direction sought with a large enough effect; inconclusive = small, poorly fitted or top-dose-only effect, or another doubt; inactive = no such curve, though single readings can be large; an effect the other way counts as inactive or inconclusive;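 also: plate controls were enzyme without inhibitor for no effect and buffer without enzyme for full effect; nearly all actives have a fitted effect of over 40% in size; top concentration of the series not given in the record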
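Detergent-free condition (0.00005% Triton X-100) in acetate buffer pH 5.5 with DTT. 1.5 nM enzyme and compound were pre-mixed 15 min, then 2 uM Z-FR-AMC substrate added; reaction progress from fluorescence change between first and third reads (60 s).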
* hit, by the source's call; ? = inconclusive; . = not tested or not shown; [ ] = dose if it differs, or a comment. Unless noted, calls follow the shape of the dose curve; as a rule, active means well fitted rising curve with a large enough effect; inconclusive means small, poorly fitted or top-dose-only effect; inactive means no such curve, though single readings can be large or run the other way. Potency is read from the fitted curve at half-maximal effect.

SMILES	RE007 growth inh	MARV entry inh	NS1 inh	Cruzain inh Det	LASV entry inh	SARS PLP yeast	2A StopGo	Cruzain inh noDet
COc1ccc(Cl)cc1NC(=O)CN1C(=O)NC(Cc2c[nH]c3ccccc23)C1=O (stereo not drawn)	-4%	-7%	.	.	-9%	1%	-23%	.
O=C(C1COc2ccccc2O1)N(Cc1cccnc1)c1nc2c(F)cccc2s1 (stereo not drawn)	.	.	.	-4.4%	19%[46.1 µM]	.	0%	19%
Cc1ccc([N+](=O)[O-])c(OCCn2cnc3ccccc32)c1	-18%	?	-11%	.	10%	-1%	-28%	.
CCN(Cc1ccncc1)C(=O)c1cc(COc2ccc(F)cc2Cl)on1	-11%	13%	-2%	.	7%	-2%	-4%	.
C=CCOn1c(=O)c(-c2ccc(OC)cc2)[n+]([O-])c2ccccc21	-11%	?	-16%	0.3%	-1%	0%	-2%	7%
Cc1ccc(-c2nnn(CC(=O)N(c3cccc(F)c3)C(C(=O)NC3CCCC3)c3ccncc3)n2)o1 (stereo not drawn)	-9%	2%[46.1 µM]	2%	.	3%[46.1 µM]	20%	0%	.
CCc1ccc(-c2nn(CC(=O)NCc3ccccc3)c3c2cnc2ccc(F)cc23)cc1	.	.	.	-0.1%	-8%[46.1 µM]	.	16%	8%
COc1ccc(-c2noc(C3CCCN(C(=O)Nc4ccccc4F)C3)n2)cc1 (stereo not drawn)	4%	?	-1%	.	?	-1%	10%	.
O=c1c(=O)n2c(nn1Cc1ccc(F)cc1)sc1ccccc12	7%	-10%	-2%	.	29%	-2%	-5%	.
CCCCCCOc1ccc(CN2CCN(CCO)CC2)cc1	-26%	?	-23%	1.3%	?	-13%	5%	5%
COc1ccc(C(=O)N/N=C\C(C)=C\c2ccccc2)cc1OC	-1%	-6%	.	.	?	.	-13%	.
COc1ccc(CCNC(=O)c2cccc(S(=O)(=O)N3CCCCC3)c2)cc1	-1%	-25%[46.1 µM]	.	.	-22%[46.1 µM]	0%	-18%	.
CC(C)CCNc1nc(-c2ccco2)c2c(c1C#N)CCCC2	3%	-12%	9%	?	-14%	-8%	?	?
COc1ccccc1NC(=O)CSc1nnc(-c2ccncc2)o1	4%	4%	3%	5.1%	3%	3%	5%	-3%
COc1ccc2cc3c(N)nn(C(=O)c4ccc(Cl)c([N+](=O)[O-])c4)c3nc2c1	12%	?	10%	0.5%	2%	-16%	-2%	17%
CC(C)(C)OC(=O)CN1C(=O)NC2(CCCc3ccccc32)C1=O (stereo not drawn)	47%	?	-6%	.	-8%[46.1 µM]	2%	-11%	.
O=C(c1ccco1)N1CCN(CC(O)COc2ccc(Br)cc2)CC1 (stereo not drawn)	8%	-3%	2%	.	-16%	1%	-27%	.
CC(C)c1ccc(OCC(O)CNC(C)c2ccccc2)cc1 (stereo not drawn)	0%	?	-1%	.	?	0%	-11%	.
O=C(COC(=O)/C=C/c1ccc(OC(F)F)cc1)Nc1cccc(S(=O)(=O)N2CCOCC2)c1	-4%	-13%[46.1 µM]	.	.	14%[46.1 µM]	7%	3%	.
Cc1ccc2c(C)nc(Nc3nc(CSc4nc5ccccc5[nH]4)cc(=O)[nH]3)nc2c1	2%	?	6%	-3.5%	-12%	15%	.	-14%
Cc1cc(N2C(=O)NC(=O)CC2C)c(C)cc1C(C)C (stereo not drawn)	10%	-4%	5%	-0.6%	13%	7%	-16%	-1%
CCOC(=O)C1CCCN(C(=O)c2cccs2)C1 (stereo not drawn)	0%	-1%	5%	6.8%	-8%	0%	19%	2%
COc1ccc(C(CCN2CCOCC2)c2c(OC)cc(OC)c3c(-c4ccccc4)cc(=O)oc23)cc1 (stereo not drawn)	13%	.	.	-1.2%	.	2%	39%[activator]	-1%
COc1ccc2oc(=O)c(-c3ccccc3C(=O)N3CCOCC3)cc2c1	12%	-4%	7%	-6.2%	1%	-8%	-3%	-1%
CC(=O)Nc1ccc(-c2nnc(SCc3ccc(C)cc3)n2C)cc1	0%	?	-4%	-4.2%	?	3%	8%	3%
Cc1ccc(C23CC4CC(CC(CN)(C4)C2)C3)cc1	7%	?	-3%	.	?	-1%	?	.
CN(C(=O)COC(=O)COc1ccc(Cl)cc1)C1CCCCC1	-11%	0%	-18%	1.1%	22%	1%	-13%	5%
Cc1cc(C)c(-c2csc(NC(=O)c3n[nH]c(=O)c4ccccc34)n2)c(C)c1	18%	?	10%	-1.9%	?	-7%	?	-29%
Cc1ccc(S(=O)(=O)N/N=C\c2ccccc2OCc2ccccc2)cc1	-18%	?	-2%	-2.4%	?	-8%	.	-18%
CCOC(=O)c1ccc(N2C(=O)c3n[nH]c(-c4cccs4)c3C2c2ccc(O)c(OC)c2)cc1 (stereo not drawn)	.	?	.	-8.3%	?	.	-28%	?
C(=NN1CCCCCC1)c1cccc2ccccc12	2%	17%	.	.	17%	.	44%[activator]	.
O=C(CNS(=O)(=O)c1ccc(Br)s1)NCc1ccccc1	-19%	0%[46.1 µM]	2%	.	?	3%	-5%	.
CCN(CC)C(=O)CC(c1ccc(N(C)C)cc1)c1c(OC)cc(OC)c2ccc(=O)oc12 (stereo not drawn)	7%	.	-34%	.	.	0%	17%	.
O=C(CSC1=NC2(CCCCC2)N=C1c1ccccc1)Nc1ccc2c(c1)OCCO2	15%	-2%	-4%	-4.3%	4%	7%	0%	6%
COC(=O)Nc1ccc(S(=O)(=O)NC2CCS(=O)(=O)C2)cc1 (stereo not drawn)	6%	7%[46.1 µM]	-4%	.	4%	3%	-8%	.
CCOc1ccc(CNC(=O)c2ccc3c(Cl)c4c(nc3c2)CCCC4)cc1	.	4%[46.1 µM]	.	-2.1%	-23%[46.1 µM]	.	33%[activator]	2%

A few values from above.
Under NS1 inh, `Cc1ccc(S(=O)(=O)N/N=C\c2ccccc2OCc2ccccc2)cc1` is listed with -2%
Under SARS PLP yeast, `Cc1cc(C)c(-c2csc(NC(=O)c3n[nH]c(=O)c4ccccc34)n2)c(C)c1` is listed with -7%

Next section.
SMILES	RE007 growth inh	MARV entry inh	NS1 inh	Cruzain inh Det	LASV entry inh	SARS PLP yeast	2A StopGo	Cruzain inh noDet
Cc1noc(C)c1COc1ccccc1C(=O)NNC(=O)c1ccccc1F	-8%	35%	.	.	1%	-5%	-10%	.
COCCn1c(C)cc(/C=C2/NC(=O)N(Cc3ccc(C)cc3)C2=O)c1C	-7%	?	7%	.	-1%	-2%	49%[activator]	.
O=C(/C(=C/c1ccc(Cl)cc1)c1nc2ccccc2[nH]1)c1cccs1	12%	0%	-195%	-3.6%	.	-26%	?	?
Cc1cccc(N2CCN(C(=O)CCNC(=O)Cn3ccc4ccccc4c3=O)CC2)c1C	15%	19%	-8%	-0.5%	-10%	4%	-22%	?
COc1ccc(/C=N/n2c(C3CCCCC3)n[nH]c2=S)c(OC)c1	-2%	.	0%	.	.	-2%	12%	.
O=C(CSc1nnc(-c2cccnc2)o1)NNC(=O)c1ccc(Br)cc1	4%	.	5%	.	.	-4%	14%	.
CCCCNS(=O)(=O)c1ccc(NC(=O)c2cccs2)cc1	15%	?	1%	.	?	0%	32%[activator]	.
Cc1cc(NC(=O)C2CC(=O)N(c3ccc(Cl)cc3)C2)no1 (stereo not drawn)	-2%	-11%[46.1 µM]	4%	.	11%[46.1 µM]	2%	-7%	.
COc1ccc(C(=O)Nc2ccc3oc(-c4cccc(F)c4)nc3c2)cc1OC	6%	-2%	-4%	-1.7%	.	2%	-12%	?
COc1ccc(-c2ccc3c(N)c(C(=O)c4cccc(OC)c4)sc3n2)cc1	10%	21%	1%	4.1%	?	7%	13%	-14%
Cn1c(N)c(C(=O)COC(=O)CSc2cccc3cccc(Cl)c23)c(=O)n(C)c1=O	-25%	28%[46.1 µM]	4%	.	10%	1%	8%	.
COc1ccc(C)cc1Nc1n[n+](-c2ccccc2)c(-c2c(Cl)cccc2Cl)s1	2%	.	-2%	.	.	-6%	0%	.
Cc1ccccc1-c1nnc(NC(=O)c2ccc(N3C(=O)CCC3=O)cc2)s1	4%	20%	-16%	-1.1%	6%	-4%	-28%	9%
COc1cccc(NC(=O)CSc2nc3c([nH]c4ccccc43)c(=O)n2-c2cc(C)cc(C)c2)c1	.	.	.	0.9%	?	.	-17%	16µM*
O=C1NC(=S)N(C(=O)c2ccc(F)cc2)/C1=C/c1ccccc1	?	?	-38%	-7.0%	?	-41%	-25%	?
Cc1cc(Nc2cccc(C)c2C)n2nc(C)nc2n1	20%	5%	-15%	13%	-2%	3%	-9%	14%
CCn1c(SCC(=O)Nc2ccc(OC)cc2)nc2c(c1=O)SCC2	14%	-10%	8%	.	15%	1%	-11%	.
CCOC(=O)c1c(NC(=O)c2ccccc2)sc2c1CCc1ccccc1-2	-25%	?	-6%	-16%	14%	-10%	-18%	?
COc1ccccc1NC(=O)C(C)NC(c1ccccc1)c1ccccc1 (stereo not drawn)	6%	-10%	-8%	.	-10%	4%	?	.
CN(Cc1ccccc1)C(=O)CSc1nc2c(c(C(F)(F)F)n1)CCc1ccccc1-2	24%	-25%	.	.	-17%	.	113%[activator]	.
Cc1ccc(NC(=S)NNC(=S)Nc2ccc(C)cc2)cc1	-16%	3%	.	.	-27%	.	-6%	.
CC1=C(C(=O)Nc2ccc(Cl)cc2)C(c2cccs2)n2nc(SCc3cccc(Cl)c3)nc2N1 (stereo not drawn)	.	-4%[46.1 µM]	.	-1.1%	-6%[46.1 µM]	.	15%	3.2µM*
CCOc1cc(CNC)ccc1OCC(=O)NC(C)(C)C	3%	-28%[46.1 µM]	-1%	.	8%	0%	-4%	.
Cc1csc(SCc2ccccc2C(=O)O)n1	3%	7%[46.1 µM]	-2%	6.9%	14%	4%	25%	9%
